Bioassay records (PubChem BioAssay)
Rango dissoc inh: inhibitors of RanGTP-induced Rango-importin beta complex dissociation; Biochemical FRET Rango-importin beta, RanGTP-induced dissociation; Potency, µM (highest dose often 46.1 µM), for inactives: top-dose activity change, negative = inhibition; actives 0.071% (n = 340,000); AID 540253; active means falling FRET ratio curve, often poorly fitted, with flat reads before Ran was added; inconclusive means other falling curves, or compound fluorescence or quenching; inactive means flat or rising ratio curve;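 note: potency is the fitted concentration of half-maximal effect; % of control where 0% means no effect; nearly all actives have a fitted effect of over 45% in size; -100% = wells without RanGTP and RCC1; the record marks most hits as doubtful in a second field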
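FRET read at 45 min, room temperature: inhibitors block the CFP/YFP signal rise when RanGTP (0.6 uM Ran, 2 mM GTP, 0.2 uM RCC1) frees Rango (0.1 uM) from importin beta (0.25 uM). Pre-read after 5 min compound exposure flags interference.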
GLA inh pH 4.5: alpha-galactosidase A (human) inhibition, pH 4.5 | purified enzyme, 4-MU-alpha-Gal fluorescence, pH 4.5 | P06280 | activity change, negative = inhibition, % at 105 µM | 230,000 tested, under 10 active; inconclusive = small, poorly fitted or top-dose-only inhibition, or a rising curve; inactive = flat fitted curve, though single readings scatter; no compound was filed as active;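 note: 0% = full activity with enzyme and -100% = basal without enzyme; dose as in the result columns while the protocol names 77 µM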
Target sequence (P06280 whole entry, looked up): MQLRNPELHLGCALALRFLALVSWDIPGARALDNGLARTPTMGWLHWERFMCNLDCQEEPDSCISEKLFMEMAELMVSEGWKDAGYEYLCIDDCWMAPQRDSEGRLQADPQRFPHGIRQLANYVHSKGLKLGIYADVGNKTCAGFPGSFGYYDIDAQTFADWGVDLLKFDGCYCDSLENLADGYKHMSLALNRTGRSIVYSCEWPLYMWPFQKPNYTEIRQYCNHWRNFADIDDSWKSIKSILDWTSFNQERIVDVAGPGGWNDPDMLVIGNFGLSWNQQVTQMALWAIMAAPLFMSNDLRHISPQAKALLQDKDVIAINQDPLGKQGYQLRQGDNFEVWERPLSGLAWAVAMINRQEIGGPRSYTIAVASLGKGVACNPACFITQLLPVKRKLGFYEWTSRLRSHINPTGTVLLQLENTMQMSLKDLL
miR-21 reporter: miR-21 reporter, rising signal; HeLa miR-21 FLuc reporter, luciferase, 48 h; Potency, µM (highest dose often 38.3 µM), for inactives: at the highest dose reporter change, positive = more light; 340,000 tested, under 10 active; active = well fitted rising curve with a large enough effect; inconclusive = small, poorly fitted or top-dose-only effect; inactive = no such curve, though single readings can be large or run the other way;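 note: % of control where 0% means no effect; miR-21 action dims this reporter so a rising signal means less miR-21 action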
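Compounds were titrated across several concentrations (up to approximately 40 uM) and incubated 48 hours with HeLa miR-21-FLuc reporter cells (miR-21 target sequence downstream of FLuc, endogenous miR-21). Readout was firefly luciferase luminescence after lytic detection reagent.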
Rango complex inh: Rango-importin beta binding inhibition; Rango CFP/YFP FRET sensor + importin beta, 45 min; Potency, µM (series often up to 92.2 µM), for the others: at the top dose inhibition of complex formation; actives 0.031% (n = 340,000); AID 540263; active = rising FRET ratio curve, often small or poorly fitted; inconclusive = mostly compound fluorescence or quenching in the first reads; inactive = flat curves in all reads;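 note: potency is the fitted concentration of half-maximal effect; 0% = DMSO wells and 100% = buffer wells lacking importin beta; nearly all actives have a fitted effect of over 15% in size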
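Inhibition scored from the CFP 486 nm/YFP 530 nm FRET ratio 45 min after adding 0.125 microM importin beta to 50 nM Rango biosensor preincubated 5 min with compound (room temperature, PBS with DTT, Tween-20, BSA). No-importin wells as positive control.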
* marks the source's active call; other numbers are inactive results; u = inconclusive; x = no result given; & = joins results of further samples.

SMILES	Rango dissoc inh	GLA inh pH 4.5	miR-21 reporter	Rango complex inh
C#CCOC(=O)C[N+](C)(C)CC=C	2%	-8	0%	0.3%
COc1ccc(CN2CCNC(=O)C2CC(=O)NC2CCCCCC2)cc1C (stereo unspecified)	-16%	x	-5%	6.1%
Cc1ccccc1NC(=O)NC1CCCc2ccccc21 (stereo unspecified)	36%	x	-2%	2.1%
O=C(Cc1cccs1)N1CCN=C1SCc1ccccc1F	0%	3	-6%	-0.9%
C1CCCC(N2CCNCC2)CC1	9%	0	-6%	-3.7%
CCN(CC(=O)Nc1c(F)cccc1F)C(=O)c1ccc(=O)[nH]c1	5%	x	0%	1.7%
COc1ccc(C(=O)N2CCC(n3c(C)nc4cc(F)ccc43)CC2)cc1OC	-10%	-5	-4%	3.7%
CCOc1ccc(N(CC(=O)N2CCN(C(=O)CN(c3ccc(OCC)cc3)S(C)(=O)=O)CC2)S(C)(=O)=O)cc1	-6%	x	-1%	0.1%
COc1ccc(C(C(=O)NCC2CCCO2)N(C(=O)CNC(=O)c2ccco2)c2cc(C)cc(C)c2)cc1OC (stereo unspecified)	9%	x	0%	-0.6%
O=C(CNC(=O)c1cc2ccccc2o1)NCc1cccs1	-12%	3	-13%	0.8%
Cc1ccc(C(=O)NC2CC(C)(C)NC(C)(C)C2)c(C)c1	15%	6	-1%	1.2%
COc1ccc(N2CCN(CC(O)COc3ccc(F)cc3)CC2)cc1 (stereo unspecified)	21%	x	-5%	1.9%
Cc1cc(NC(=O)CN2CCN(c3ncccn3)CC2)no1	5%	3	0%	0.9%
CCn1cc(C(=O)Nc2ccc(-n3cnnn3)c(OC)c2)c(=O)c2ccc(C)nc21	x	3	-3%	x
Cc1cc(/C=c2/sc3nc4ccccc4n3c2=O)c(C)n1-c1ccccn1	u	-1	27%	u
CCOc1ccc(OCC)c(-c2c(=O)n(OCc3ccccc3C(=O)OC)c3ccccc3[n+]2[O-])c1	0%	2	-2%	-1.8%
O=C(CSc1ccc(-c2ccco2)nn1)NC1CCCCC1	-22%	-3	-9%	3.2%
COc1cc(/C=N/Nc2ccc(C(=O)O)cc2)cc(OC)c1OC	1%	-16	-61%	-0.6%
COc1ccc(NS(=O)(=O)c2cccc(C(=O)NCC(c3ccc(OC)cc3)N3CCOCC3)c2)cc1 (stereo unspecified)	17%	x	1%	-1.1%
c1ccc(-c2ncc3c(ccc4ccccc43)n2)cc1	3%	1	-63%	-0.7%
COc1ccc(CCNC(=O)CCCn2c(SCC#N)nc3ccccc3c2=O)cc1OC	-11%	2	-2%	-1.1%
C/C(=N/N1CCN(c2ccccn2)CC1)c1ccc([N+](=O)[O-])cc1	-17%	0	-13%	0.7%
CCOc1ccccc1CNS(=O)(=O)c1cc(-c2cc(C)no2)ccc1OC	2%	x	-3%	3.0%
O=C(Nc1ccc(F)cc1F)c1cccnc1	47%	5	-18%	6.0%
CCCCNC(=O)CSc1nc2ccccc2c(=O)n1CCNC(C)=O	11%	-22	-4%	-3.1%
Cc1cccc(C(CC(=O)N2CCCCC2)c2ccccc2)c1O (stereo unspecified)	-6%	x	-7%	-0.4%
CCN(CC)c1nc(-c2ccccc2)ncc1S(=O)(=O)c1ccc(C)cc1	1%	2	-1%	-3.0%
O=C(NCc1cccnc1)c1noc2c1CCCCC2	0%	0	-19%	-0.3%
Cc1ccc(C(=O)N(NC2=NS(=O)(=O)c3ccccc32)S(=O)(=O)c2ccc(C)cc2)cc1	6%	-12	-10%	-3.2%
OCCCn1c(CCNc2nc(-c3ccc(F)cc3)cs2)nc2cc(C(F)(F)F)ccc21	13%	x	x	-1.8%
Cc1ccc(C(O)c2nc3ccccc3n2C(C)C)cc1 (stereo unspecified)	-8%	-2	5%	-2.8%
Cc1cc(=O)c2c(C)nn(-c3ccccc3)c2[nH]1	8%	2	-1%	1.6%
CC1CC(C)CN(S(=O)(=O)c2ccc(C(=O)Nc3nnc(C4CC4)o3)cc2)C1 (stereo unspecified)	-22%	x	-1%	3.7%
COCCNS(=O)(=O)c1ccc(-c2ccc(C)cc2)cc1	2%	-8	-8%	7.1%
Cc1nn(C)cc1NC(=O)c1ccc(Br)o1	4%	13	-5%	-2.9%
CCN(C(=O)CSc1nnc(-c2ccc(F)cc2)n1C)C1CCS(=O)(=O)C1 (stereo unspecified)	30%	x	x	0.8%
Cc1ccccc1C(=O)NC(=S)Nc1sc2c(c1C#N)CCCC2	-3%	-6	-24%	-2.8%
CCOC(=O)c1sc(=S)n(-c2ccccc2Cl)c1C	-4%	-4	-13%	-0.4%
COc1ccc(OC)c(CN(CCN2CCOCC2)S(=O)(=O)c2ccc(NC(C)=O)cc2)c1	-1%	-1	-1%	0.5%
O=C(COc1cccc(F)c1)NNC(=O)c1cccc(-n2cccc2)c1	16%	x	x	-4.4%
O=C(Cn1nnc2ccccc2c1=O)NCCc1ccc(F)cc1	x	-5	-11%	x
CCN(C(=O)CSc1nc2nc(C)cc(C)n2n1)C1CCS(=O)(=O)C1 (stereo unspecified)	28%	6	1%	u
CCOC(=O)c1nc(Nc2ccc(N3CCC(C)CC3)cc2)c2ccccc2n1	1%	-8	3%	3.9%
COc1ccc(OCC(O)CN(CCO)CC(O)Cn2ccc3ccccc32)cc1 (stereo unspecified)	7%	-1	1%	0.8%
CCOC(=O)CNC(=O)N(CCOC)CC1CCCN(C2Cc3ccccc3C2)C1 (stereo unspecified)	16%	x	1%	-1.5%
O=C(CSc1nnc(-c2ccccc2)n1CC1CCCO1)N1CCCC1 (stereo unspecified)	4%	4	4%	1.8%
O=C(NC1CCN(C(=O)N2c3ccccc3Sc3ccccc32)CC1)c1ccco1	0%	1	-9%	-0.8%
COc1ccc(NC(=O)Nc2ccc(C)cc2Br)c(OC)c1	4%	6	1%	2.0%
CCOC(=O)c1ccc2c(c1)nc(SCC(=O)c1cc3ccccc3o1)n2CC	2%	-1	-25%	4.3%
CC(=O)c1ccc2cccc3c2c1N=CN3C	u	7	-17%	u
CS(=O)(=O)N(CCc1ccccc1)CC(=O)N1CCN(Cc2ccc3c(c2)OCO3)CC1	-10%	5	11%	2.1%
Cc1cc(C)nc(NS(=O)(=O)c2ccc(NC(=O)c3ccc(O)cc3O)cc2)n1	0%	x	-4%	1.8%
COCC1CCN(Cc2nc(Cc3ccccc3Cl)no2)CC1	8%	-2	-18%	1.6%
OCCNc1nc(Nc2ccccc2O)nc(N2CCCC2)n1	7%	x	x	-0.9%
C=CCn1c(N)cc(=O)nc1SCC(=O)Nc1ccccc1	-9%	-5	-7%	-0.8%
O=P(CCCCCCCCCP(=O)(c1ccccc1)c1ccccc1)(c1ccccc1)c1ccccc1	-6%	-16	u	2.9%
CCCN(CC(=O)Nc1ccccc1OC)C(=O)c1cccc(S(=O)(=O)NCc2ccccc2)c1	-20%	x	x	3.4%
CC1=C(C(=O)N2CCCC(N3CCN(c4cccc(C(F)(F)F)c4)CC3)C2)OCCO1 (stereo unspecified)	0%	x	10%	-1.3%
CN(C)N=Nc1ccc2nc[nH]c2c1	1%	-7	-8%	-0.8%
N#CC1(C#N)C(c2ccccc2)OC23CCCCCC2C1(C#N)C(=N)O3 (stereo unspecified)	u	u	-1%	u

Continuation:
SMILES	Rango dissoc inh	GLA inh pH 4.5	miR-21 reporter	Rango complex inh
O=C(COC(=O)c1cc(S(=O)(=O)N2CCOCC2)ccc1Cl)Nc1ccccc1Cl	12%	x	x	-5.0%
CC(=O)Nc1cccc(Oc2ccc3c(c2)C(=O)NC3=O)c1	4%	x	-31%	1.7%
CC(C)(C)c1cc(NC(=O)COC(=O)c2ccc3c(=O)n4c(nc3c2)CCC4)n(-c2ccccc2)n1	6%	-7	-4%	-5.0%
CC(=O)N1CCN(C(=S)Nc2ccc(Oc3ccccc3)cc2)CC1	-8%	-8	-6%	-1.1%
O=C(CN(c1ccc(F)cc1)S(=O)(=O)c1ccccc1)NCCSC1CCCCC1	0%	-6	10%	6.0%
Cc1nn(CCOc2ccccc2)c(=O)n1-c1ccccc1	5%	-21	-45%	1.1%
O=C(NC1CCCCCC1)c1cc(S(=O)(=O)N2CCOCC2)ccc1N1CCCCC1	-2%	-6	-1%	0.8%
CCOC(=O)N1CCN(Cc2cn[nH]c2-c2cccc3ccccc23)CC1	5%	4	0%	2.1%
CN(C)CCCNc1c(C(=O)O)cnc2c1cnn2C	x	2	0%	x
CC1CCC(C(C)C)C(OP(=O)(c2ccc(N(C)C)cc2)C(O)c2cccnc2)C1 (stereo unspecified)	x	6	-1%	x
CC(C)Cn1c(N)c(C(=O)NCc2cccs2)c2nc3ccccc3nc21	u	18	19%	u
COC(=O)c1ccc(COc2cccc3c2CCN(Cc2ccccc2)C3=O)o1	-1%	-11	12%	0.0%
Cc1cc(NS(=O)(=O)c2ccc(OCCNS(C)(=O)=O)cc2)no1	0%	1	-7%	1.8%
CC1=C/C(=N\OC(=O)/C=C/c2ccccc2)C(C)=CC1=O	6%	-5	-2%	0.6%
O=C(NCc1ccco1)c1ccc(N2CCOCC2)c([N+](=O)[O-])c1	-3%	2	-9%	5.0%
COc1ccc2c(c1)[C@H]1[C@H](CO2)[C@H](c2ccccc2)[C@]2(C)C(=O)N(CC3CCCO3)CC(=O)N12 (stereo partly specified)	5%	x	x	-0.9%
CCOCN(C(=O)Cn1c(COC)nc2ccccc21)c1c(C)cccc1CC	12%	-7	0%&1%	7.5%
Cc1ccc2c(NC(=O)C3CC3)c(C)ccc2n1	x	0	-1%	x
C#CCOCCOCCOCCNc1nc(N2CCN(C(=O)[C@H](CCC(=O)O)n3cc(C(N)CO)nn3)CC2)nc(N2CCN(C(=O)[C@H](CCC(=O)O)n3cc(C(N)[C@H](C)CC)nn3)CC2)n1 (stereo partly specified)	2%	-3	-1%	u
O=C(CN(C(=O)c1cc2c(s1)CCC2)C1CCCC1)NCc1cccs1	-1%	8	2%	-2.7%
COc1ccc(CNCc2ccccc2C(F)(F)F)cc1	4%	x	0%	1.0%
C/C(=N\NC(=O)c1cc(-c2cccnc2)nc2ccccc12)c1ccccc1O	-21%	9	8%	u
CC1CCCCN1C(=O)C1CCN(S(=O)(=O)c2ccc(-n3cnnn3)cc2)CC1 (stereo unspecified)	-11%	x	4%	-0.2%
Cc1ccc(NC(=O)CCC(=O)NNS(=O)(=O)c2ccccc2)c(C)c1	20%	-7	-2%	0.5%

Not all compounds are listed; rates above refer to the full screens.
